# Source: PubChem BioAssay
# Sa growth 42C: inhibitors of Staphylococcus aureus growth at 42 °C. S. aureus RN4220 growth, OD600, 20 h; hits give low values. relative growth, % (concentration not given with the values). 170,000 compounds, 0.53% hits. AID 720641;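 active means growth at 42 °C up to 50% and 20 or more points under that at 30 °C, or under 10% at both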;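 further: 300 nL library stock went into each well; scaled to the means of positive and negative controls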
# GIV-Gai inh: inhibitors of GIV GBA-motif binding to rat Galpha-i3 | P08753 | Galpha-i3/FITC-GIV peptide fluorescence polarization, 90 min; hits give low values; scaled: aluminum fluoride 0%, vehicle 100% | percent of control (FP), % (concentration not given with the values) | 210,000 compounds, 0.42% hits | AID 1224905;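 active means replicate mean at 85% of control or lower, very high polarization wells dropped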;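 further: wells of about 15 µL received 100 nL stock; the first replicate is given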
# Target sequence (P08753 whole entry, looked up): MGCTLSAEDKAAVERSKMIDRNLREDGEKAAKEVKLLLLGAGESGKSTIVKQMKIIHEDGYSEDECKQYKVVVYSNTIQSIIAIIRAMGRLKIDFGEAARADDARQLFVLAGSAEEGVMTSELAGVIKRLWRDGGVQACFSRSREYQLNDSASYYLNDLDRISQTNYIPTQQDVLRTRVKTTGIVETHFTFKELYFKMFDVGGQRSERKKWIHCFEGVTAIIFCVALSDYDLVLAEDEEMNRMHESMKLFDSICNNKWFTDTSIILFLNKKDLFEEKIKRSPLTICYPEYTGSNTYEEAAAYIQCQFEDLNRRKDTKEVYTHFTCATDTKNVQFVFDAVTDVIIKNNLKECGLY
# HCMV NEC inh: disrupts HCMV UL50-UL53 complex binding. HTRF UL50-UL53 interaction, normalized percent inhibition. 190,000 compounds, 0.15% hits. AID 1918969. inhibition, % (test concentration not listed);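 active means both replicates at 50% or more, plus weaker picks with an unusually low signal ratio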;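 further: stock transfer was 100 nL into about 20 µL; 0% = negative control wells and 100% = wells with untagged competitor protein; inactives centre near -12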
# Sa growth 42C second temp: further read-out of Sa growth 42C, marked with its call; relative growth, %; measured here: growth at 30 °C;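 optical density after 20 h as mean of two plates; 100% = untreated growth and lower means inhibition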
# * = called active by the depositor; · = not tested or not shown; & = joins results of further samples.
1: O=C1CC(c2cccc(Cl)c2)CC(O)=C1C=NC1CCCC1 (stereo unspecified)
2: O=C(c1ccc(N2C(=O)CCS2(=O)=O)cc1Cl)N1CCCC1
3: CCOC(=O)c1ccc(NC(=O)C(C)Sc2nc(O)c(NC(C)=O)c(=O)[nH]2)cc1 (stereo unspecified)
4: CC[C@@H](CO)NCCN[C@@H](CC)CO
5: CCN(Cc1ccncc1)Cn1nc(C2COc3ccccc3O2)oc1=S (stereo unspecified)
Compound	1	2	3	4	5
Sa growth 42C	103	·	95	96	102
Sa growth 42C second temp	77	·	98	91	89
GIV-Gai inh	·	105	111	·	·
HCMV NEC inh	-4	-23	4	-20	9

6: CC(C)CCNC(=O)c1cccc(-n2cnc3cccnc32)c1
7: COc1ccccc1C(=O)Nc1ccccc1C(=O)OCc1cc(=O)n2c(C)csc2n1
8: NCc1ccccc1-n1cccc1
9: O=C1CCC(=O)N1CC(O)Cn1c2ccccc2c2ccccc21 (stereo unspecified)
10: Cn1c(SCC(=O)OCC(=O)c2ccc(Cl)cc2)nc2c1c(=O)[nH]c(=O)n2C
Compound	6	7	8	9	10
Sa growth 42C	89	98	96	98	·
Sa growth 42C second temp	87	94	86	89	·
GIV-Gai inh	110	107	101	·	99
HCMV NEC inh	·	·	-26	-7	-8

11: Cc1cccc2sc(NC(=O)c3ccc(S(=O)(=O)N4CCc5ccccc54)cc3)nc12
12: CC1CCC(Nc2nc3c(-c4ccc(Cl)cc4)nnn3c3ccccc23)CC1 (stereo unspecified)
13: NC(=O)COC(=O)c1ccccc1C(=O)c1ccccc1
14: N#C/C(=C\c1ccccc1F)c1nc2ccccc2c(=O)[nH]1
15: COc1ccccc1CC(=O)NC1CC(C)(C)NC(C)(C)C1
Compound	11	12	13	14	15
Sa growth 42C	·	104	88	93	98
Sa growth 42C second temp	·	87	89	98	79
GIV-Gai inh	107	104	·	104	99
HCMV NEC inh	-4	-31	-22	-34	-7

16: COc1ccc(NC(=O)CC(C)C)cc1OC
17: Cc1cc2c(cc3n2CC(C)(C(=O)NC2CCCCC2)N(C2CCCCC2)C3=O)o1 (stereo unspecified)
18: NC1CCN(O)C1=O (stereo unspecified)
19: O=C1N=C(N2CCCC2)S/C1=C/c1ccc(O)cc1
20: FCc1nc2ccccc2s1
Compound	16	17	18	19	20
Sa growth 42C	93	·	·	84	86
Sa growth 42C second temp	86	·	·	83	89
GIV-Gai inh	·	101	106	106	·
HCMV NEC inh	-3	-20	-37	-69	-12

21: COc1ccc(C(=O)CC2(O)C(=O)N(Cc3ccccc3Cl)c3ccccc32)cc1 (stereo unspecified)
22: CCOC(=O)c1nc(NCc2cccnc2)c2c3c(sc2n1)CCCC3
23: CC(=O)OCC(COC(C)=O)OC(C)=O
24: CCOc1ccc(CCNC(=O)CCn2c(=O)c3cccn3c3ccc(F)cc32)cc1
25: COc1cccc(C(=O)Nc2nn3c(-c4ccc(OC)c(OC)c4)nnc3s2)c1
Compound	21	22	23	24	25
Sa growth 42C	91	·	95	115	100
Sa growth 42C second temp	88	·	97	96	84
GIV-Gai inh	106	99	·	95	99
HCMV NEC inh	-33	-16	-16	-22	·

26: CNC(=O)C1CCC(Cn2c(=O)c3sccc3n(CC(=O)NCc3ccc(C)cc3)c2=O)CC1 (stereo unspecified)
27: COC(=O)c1ccc(NC(=O)Cn2nc3c(Sc4ccccc4)nc4ccccc4n3c2=O)cc1
28: CCOC(=O)c1cc(-c2ccc(C)cc2)n(CC(=O)NC2CCCC2)c1C
29: Cc1nc2cc(C(=O)OCC(N)=O)ccc2n1-c1ccccc1
30: CCC(C)NC(=O)c1nn(C)c(=O)c2ccccc12 (stereo unspecified)
Compound	26	27	28	29	30
Sa growth 42C	94	·	102	82	78
Sa growth 42C second temp	93	·	88	96	92
GIV-Gai inh	99	107	107	·	·
HCMV NEC inh	·	-14	·	-31	-25

31: O=C(/C=N/O)Nc1ccccc1I
32: CCCCC(=O)Nc1ccc2c(c1)nc(CN1CCN(C(C)=O)CC1)n2CC
33: CC1CCN(C(=O)CN2C(=O)CCc3cc(S(=O)(=O)N4CCC(C)CC4)ccc32)CC1
34: O=C(C(O)c1ccccc1)N1N=C2CCCCC2C1(O)C(F)(F)F (stereo unspecified)
35: O=C(NCc1ccccc1)c1ccccc1NCC(=O)N1CCCCC1
Compound	31	32	33	34	35
Sa growth 42C	113	·	·	106	95
Sa growth 42C second temp	89	·	·	102	95
GIV-Gai inh	·	102	109	110	·
HCMV NEC inh	-3	-9	-8	-5	-5

36: CCOC(=O)N1CCCC1C(=O)O (stereo unspecified)
37: CCn1ccc2cc(S(=O)(=O)N3CCCC(C(=O)NCCCN4CCCC4=O)C3)ccc21 (stereo unspecified)
38: CCc1ccc(NC(=O)c2cc3c(=O)n(CC)c4ccccc4c3s2)cc1
39: Cc1c(C(=O)N2CCc3ccccc32)sc2nc3n(c(=O)c12)CCCC3
40: Cc1ccc(C(=O)c2ccc(N3CCOCC3)c(F)c2)cc1
Compound	36	37	38	39	40
Sa growth 42C	109	·	80	91	101
Sa growth 42C second temp	90	·	82	83	94
GIV-Gai inh	101	102	99	101	100
HCMV NEC inh	-18	-19	·	·	-22

41: CCCCC(CC)C(=O)Nc1ccccc1C#N (stereo unspecified)
42: Cc1ccc(C)c(Cn2c(=O)n(Cc3ccc4c(c3)OCO4)c(=O)c3oc4ccccc4c32)c1
43: Cc1ccc2sc(-c3ccc(NC(=O)CCN4C(=O)c5ccccc5C4=O)cc3)nc2c1
44: COc1ccc(CCNC(=O)CSc2nc3c(sc4ccccc43)c(=O)n2CCO)cc1OC
45: COc1cc(C)cc(OC)c1OCC(=O)Nc1cccc(C#N)c1
Compound	41	42	43	44	45
Sa growth 42C	95	106	·	105	97
Sa growth 42C second temp	98	94	·	86	92
GIV-Gai inh	100	102	103	102	·
HCMV NEC inh	-17	·	-15	·	-14

46: NC1=Nc2cccc3cccc1c23
47: COc1ccc(N2CCN(S(=O)(=O)CCNC(=O)c3ccc(OC(C)C)cc3)CC2)cc1
48: S=C1N(c2ccccc2)C(c2ccccc2)N2CCCN12 (stereo unspecified)
49: CNC(=O)Cc1nnc(-c2ccc(C)cc2)o1
50: COc1ccc(C2C=C(C(=O)O)Nc3ncnn32)cc1OC (stereo unspecified)
Compound	46	47	48	49	50
Sa growth 42C	71	81	125	108	102
Sa growth 42C second temp	85	91	97	88	88
GIV-Gai inh	·	103	105	101	98
HCMV NEC inh	-72	·	-8	·	-63

# In another format: entries from further up
# Order of results – Sa growth 42C | Sa growth 42C second temp | GIV-Gai inh | HCMV NEC inh
47) COc1ccc(N2CCN(S(=O)(=O)CCNC(=O)c3ccc(OC(C)C)cc3)CC2)cc1
 : 81 | 91 | 103 | ·
48) S=C1N(c2ccccc2)C(c2ccccc2)N2CCCN12 (stereo unspecified)
 : 125 | 97 | 105 | -8
49) CNC(=O)Cc1nnc(-c2ccc(C)cc2)o1
 : 108 | 88 | 101 | ·

# Three structures out of the list, sorted by heavy-atom count, ascending:
49: CNC(=O)Cc1nnc(-c2ccc(C)cc2)o1
45: COc1cc(C)cc(OC)c1OCC(=O)Nc1cccc(C#N)c1
47: COc1ccc(N2CCN(S(=O)(=O)CCNC(=O)c3ccc(OC(C)C)cc3)CC2)cc1
Compound	49	45	47
Sa growth 42C	108	97	81
Sa growth 42C second temp	88	92	91
GIV-Gai inh	101	·	103
HCMV NEC inh	·	-14	·

# Later entries.
51: CCOC(=O)c1sc2ncn(C(C)C(=O)OCc3ccccc3)c(=O)c2c1C (stereo unspecified)
52: O=S(=O)(c1cccc(F)c1)N1CCN(c2nc3ccc(Cl)cc3s2)CC1
53: O=C(Nc1ccc(Cl)cc1)C1CC/C(=C\c2ccccc2)C1=O (stereo unspecified)
54: Cc1cc(C)c2nc(SCc3nnc(-c4ccccc4)o3)cc(C)c2c1
55: COC(=O)c1c2ccccc2c(C)c2ccccc12
Compound	51	52	53	54	55
Sa growth 42C	104	98	128	103	96
Sa growth 42C second temp	87	95	89	98	88
GIV-Gai inh	·	100	·	·	100
HCMV NEC inh	-18	-5	-8	-13	-22

56: CCC(C)NC(=O)c1ccc2c(c1)N(Cc1ccccc1)C(=O)c1ccccc1S2 (stereo unspecified)
57: CC1=C(C(=O)OC(C)C)C(c2cn(-c3ccccc3)nc2-c2ccc(Cl)cc2)NC(=O)N1C (stereo unspecified)
58: N#C/C(=C\c1ccc(-c2ccc(S(=O)(=O)N3CCOCC3)cc2)o1)C(=O)NCc1ccccc1
59: Cc1cc(Cl)ccc1OCC(=O)N1CCC(c2nc3ccccc3o2)CC1
60: CSc1ncccc1C(=O)Oc1ccc2c(c1)OCO2
Compound	56	57	58	59	60
Sa growth 42C	108	·	96	106	92
Sa growth 42C second temp	87	·	91	85	99
GIV-Gai inh	98	111&104	·	101	·
HCMV NEC inh	·	14	-8	-23	0

61: Cc1sc2ncnc(N3CCc4ccccc43)c2c1C
62: COc1cccc(CSc2nc3n(n2)C(CC(C)C)C(C(=O)Nc2ccccc2OC)=C(C)N3)c1 (stereo unspecified)
63: CCOc1ccc(-n2nc(CO)c(C(=O)NCC(c3ccccc3)c3ccccc3)n2)cc1
64: COc1ccc(Cl)cc1NC(=O)CSc1ccc2nnc(CCNS(=O)(=O)c3ccccc3)n2n1
65: COc1ccc(NC(=O)c2ccc(NC(=O)CSC3=NCCN3)cc2)cc1
Compound	61	62	63	64	65
Sa growth 42C	102	99	103	106	103
Sa growth 42C second temp	111	84	95	60	95
GIV-Gai inh	·	101	101	110	·
HCMV NEC inh	-5	·	-5	·	-23

66: O=C(CN1C(=O)CC(c2ccc(F)cc2)=Nc2ccccc21)Nc1cc(F)ccc1F
67: CCOc1ccc(CN(C)C(=O)c2cn3ccccc3n2)cc1
68: COc1cccc(/C=C2\Oc3ccccc3NC2=O)c1
69: O=C1NN(c2ccccc2)C(=O)/C1=C/c1ccc(Br)cc1
70: Cc1ccc(CSC2=NC(C)(C)Nc3ccccc32)c(C)c1
Compound	66	67	68	69	70
Sa growth 42C	·	95	103	106	94
Sa growth 42C second temp	·	79	97	87	99
GIV-Gai inh	102	·	99	·	113
HCMV NEC inh	-31	-38	-16	23	·

71: CC(C)C(=O)NCCc1nc2ccccc2n1C
72: COc1ccc(C2C(C(=O)Nc3ccc(F)cc3)c3ccccc3C(=O)N2c2ccc(OC)cc2)cc1 (stereo unspecified)
73: O=C(Nc1nc2ccccc2n1CCN1CCOCC1)c1ccc(Cl)cc1
74: COc1ccc(-n2c(C)c3c(C)nnc(C)c3c2C)cc1
75: CCc1ccccc1NC(=O)c1sc(-n2nc(C)c(Cc3ccc4c(c3)OCO4)c2C)nc1C
Compound	71	72	73	74	75
Sa growth 42C	103	·	·	120	94
Sa growth 42C second temp	91	·	·	78	90
GIV-Gai inh	98	101	99	·	101
HCMV NEC inh	-7	-2	1	-61	10

76: CC1CCCCN1C(=O)COC(=O)c1ccc(-n2cnnn2)cc1 (stereo unspecified)
77: CCCS(=O)(=O)N1CCC2(CC1)Nc1cc(F)ccc1-n1cccc12
78: S=C1NCN(CCc2ccccc2)CN1CC1CCCO1 (stereo unspecified)
79: FC(F)(F)c1cc(Cl)c2nc(CSc3ncccn3)cn2c1
80: CCOc1ccc(NC(=O)Cn2cc(C(=O)c3ccccc3)c(=O)c3cc4c(cc32)OCO4)cc1
Compound	76	77	78	79	80
Sa growth 42C	88	·	95	112	97
Sa growth 42C second temp	92	·	91	91	87
GIV-Gai inh	·	99	107	·	103
HCMV NEC inh	-13	7	5	-29	-13

81: COc1ccc(N2C(=O)NC(=O)/C(=C\c3cc(Cl)c(OCC(=O)O)c(Cl)c3)C2=O)cc1
82: CCN1/C(=C/C(C)=O)Sc2ccc(OC)cc21
83: CCOC(=O)c1ccccc1NC(=O)Cn1c(=O)n(Cc2ccc(C(=O)NCc3ccc4c(c3)OCO4)cc2)c(=O)c2ccccc21
84: CCn1c(Cn2nnc3ccccc32)nnc1SCC(=O)c1ccc(Br)cc1
85: CCCCC(=O)C1CCOC(C)(C)C1 (stereo unspecified)
Compound	81	82	83	84	85
Sa growth 42C	·	·	110	105	97
Sa growth 42C second temp	·	·	101	86	79
GIV-Gai inh	105	101	106	107	97
HCMV NEC inh	-21	-25&-14	-44	4	-21

86: COc1cccc(C(=O)Nc2ccc3nc(SCC(=O)N4CCOCC4)sc3c2)c1
87: COc1ccc(S(=O)(=O)N(C)CC(=O)N2CCCC2)cc1
88: CN=c1scc(-c2c[nH]c3ccccc23)n1C
89: COc1ccc(-n2cc(C(=O)Nc3ccccc3C#N)c3ccccc3c2=O)cc1
90: COC(=O)C1=C(CNC2CCCCC2)NC(=O)NC1c1cccc(OC)c1 (stereo unspecified)
Compound	86	87	88	89	90
Sa growth 42C	83	102	77	109	102
Sa growth 42C second temp	47	82	67	110	65
GIV-Gai inh	105	109	·	106	103
HCMV NEC inh	-32	-6	-24	·	·

91: Cc1nc2ccc(NC(=O)C(C)(C)C)cc2s1
92: Cc1ccnc(N2CCCC(C(=O)O)C2)n1 (stereo unspecified)
93: COCc1cc(C)nc2c1C(=O)NC(c1ccc(NC(C)=O)cc1)N2Cc1ccccc1 (stereo unspecified)
94: Cc1cccc(NC(=O)CSc2cn(CC(=O)N3CCC(C)CC3)c3ccccc23)c1
95: COc1cc2c(cc1OC)C(COc1ccc3c(C)cc(=O)oc3c1)N(C(=O)C1CC1)CC2 (stereo unspecified)
96: COc1ccc(-n2ncc(C(=O)N3CCN(c4ccc(F)cc4)CC3)c2C)cc1
97: O=C(CCn1c(=O)c2cccn2c2cccnc21)Nc1ccccc1Br
Compound	91	92	93	94	95	96	97
Sa growth 42C	98	·	85	·	92	113	117
Sa growth 42C second temp	100	·	91	·	92	96	80
GIV-Gai inh	106	103	102	114	107	105	98
HCMV NEC inh	13	-23	-33	2	·	12	·
